FGF22 binding = binders of recombinant human FGF22 by thermal shift; 340,000 tested, 1.5% active; Q9HCT0; calls only at 9.99 µM; SYPRO orange fluorescence; percent of sucrose octasulfate shift, DMSO zero; AID 651658;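 active means melting point raised past a set limit in the mean and every replicate; three in four hits are not shown here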
Target sequence (Q9HCT0 whole entry, looked up): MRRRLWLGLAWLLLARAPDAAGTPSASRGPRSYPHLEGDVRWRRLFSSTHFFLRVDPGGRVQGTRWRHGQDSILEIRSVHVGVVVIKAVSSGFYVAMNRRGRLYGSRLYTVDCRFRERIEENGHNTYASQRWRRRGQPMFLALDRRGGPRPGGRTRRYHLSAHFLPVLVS
T cruzi inh = blocks replication of Trypanosoma cruzi | T. cruzi beta-gal in NIH3T3, luminescence, 90 h | inhibition, % (no concentration beside the values) | 300,000 tested, 1.4% active;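 active means mean inhibition across valid replicates above about 55%, limit read from the data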;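 further: signal also drops with host cell toxicity which is not excluded here; 0% = plate median of DMSO wells and 100% = zero luminescence signal; higher percent means less beta-gal luminescence so fewer parasites; stock transfer was 50 nL into about 50 µL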
Ecoli growth = blocks Escherichia coli growth; 330,000 tested, 0.21% active; OD600 absorbance (no concentration beside the values); OD600, 23 h; hits give low values;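 active means OD600 absorbance below the run mean of sample wells minus 3.6 SD, in any replicate, cut at about 0.56 in these data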;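 further: stock transfer was 300 nL into about 60 µL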
UCH37 inh = blocks the human deubiquitinase UCH37 | Q9Y5K5 | purified proteasome/UCH37, Ub-AMC cleavage fluorescence | inhibition, % (concentration not given with the values) | 330,000 tested, 0.33% active;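 active means mean of two replicates above 20%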;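 further: 0% = compound-free wells with enzyme and 100% = wells lacking proteasome; stock transfer was 100 nL into about 20 µL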
Target sequence (Q9Y5K5 whole entry, looked up): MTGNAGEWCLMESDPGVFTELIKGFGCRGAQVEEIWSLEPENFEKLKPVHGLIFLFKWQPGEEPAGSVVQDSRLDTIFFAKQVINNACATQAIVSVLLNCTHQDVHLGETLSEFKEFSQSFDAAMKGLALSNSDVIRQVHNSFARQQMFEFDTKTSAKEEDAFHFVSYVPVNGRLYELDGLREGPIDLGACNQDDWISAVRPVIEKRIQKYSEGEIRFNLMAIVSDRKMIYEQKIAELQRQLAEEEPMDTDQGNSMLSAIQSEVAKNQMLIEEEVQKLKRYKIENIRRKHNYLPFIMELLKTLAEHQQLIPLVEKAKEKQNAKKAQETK
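System: Proteasome-associated human UCH37 deubiquitinase; Input: 0.15 nM proteasome in added enzyme buffer; Also added: Ub-AMC substrate from 1 µM stock; Incubation: 30 min compound-proteasome preincubation then 25 min substrate reaction, room temperature; Detection: fluorescence, ex 355 nm, em 460 nm; Read-out: % inhibition of Ub-AMC cleavage fluorescence; Benchmarks: no-proteasome and no-compound wells.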
Beta cell apopt = blocks beta cell apoptosis | INS-1E cytokine-induced death, ATP luminescence, 48 h; percent of positive-control rescue, neutral wells zero | 300,000 tested, 0.8% active | protection from apoptosis, % (test concentration not listed);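 active means all replicates at 75% or more, or half of them and the mean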;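 further: 0% = cytokine-treated negative control wells and 100% = positive control rescue; higher means more ATP so stronger rescue from cytokine killing; wells of about 40 µL received 100 nL stock; the first replicate is given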
MLL AF4-AF9 inh = inhibitors of human MLL-AF4/AF9 interaction; P42568; inhibition, % at 10 µM; AlphaScreen, biotin-AF4 peptide binding to FLAG-AF9; 350,000 tested, 0.47% active;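 active means every replicate reaching a set inhibition limit, whatever the replicate mean, cut at about 25% in these data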;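 further: 0% = plate neutral control median and 100% = total signal loss; the record names both 10 and 1 µM as test concentration; the first replicate is given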
Target sequence (P42568 whole entry, looked up): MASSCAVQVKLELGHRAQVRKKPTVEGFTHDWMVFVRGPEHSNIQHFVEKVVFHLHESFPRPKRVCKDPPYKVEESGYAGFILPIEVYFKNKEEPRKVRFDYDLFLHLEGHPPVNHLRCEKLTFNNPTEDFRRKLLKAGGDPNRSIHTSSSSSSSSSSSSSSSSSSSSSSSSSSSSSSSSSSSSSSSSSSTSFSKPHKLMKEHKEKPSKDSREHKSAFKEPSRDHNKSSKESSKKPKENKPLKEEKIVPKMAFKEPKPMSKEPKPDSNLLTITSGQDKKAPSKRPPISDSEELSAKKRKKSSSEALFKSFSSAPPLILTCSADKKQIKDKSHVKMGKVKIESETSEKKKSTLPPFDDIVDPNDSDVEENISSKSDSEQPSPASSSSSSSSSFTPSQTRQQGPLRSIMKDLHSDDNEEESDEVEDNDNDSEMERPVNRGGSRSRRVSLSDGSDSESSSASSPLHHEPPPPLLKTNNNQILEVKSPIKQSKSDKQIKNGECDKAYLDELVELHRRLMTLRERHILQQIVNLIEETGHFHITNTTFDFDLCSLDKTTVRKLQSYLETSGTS
A1 inh = inhibitors of the anti-apoptotic protein A1, read as caspase activation; MEF A1-2A-BIM cells, Caspase-Glo 3/7 luminescence, 3 h; percent of clofoctol response, vehicle zero; caspase activation, % (no concentration beside the values); 330,000 tested, 0.066% active; AID 2462;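 active means over half of replicate activation scores above 10%, or exactly half above 10 with the replicate mean above 10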;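 further: wells of about 30 µL received 50 nL stock; many hits fall short of the cut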
Ecoli rRNA inh = selective bacterial rRNA inhibition in E. coli. GFP signal change (wild-type ribosome), % (no concentration beside the values). E. coli WT GFP vs humanized-ribosome RFP mutants, fluorescence, 24 h; hits give low values; DMSO median 0, no signal -100. 350,000 tested, 1.6% active;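 active means significant combined selectivity score with lowered wild-type GFP, culture density cut under 30%, mutant RFP and density less affected; inactive means any of these conditions unmet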; further: one replicate is shown; some compounds called inactive have numbers as strong as hits
Ecoli rRNA inh OD600 = further read-out of Ecoli rRNA inh, marked with its call; OD600 change, %; measured here: OD600 growth;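 optical density of the mix in the first replicate; 0 = DMSO median and -100 = no signal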
Ecoli rRNA inh RFP = also measured in Ecoli rRNA inh; calls as there; RFP signal change, %; measured here: RFP humanized mutant strains;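 first replicate; 0 = DMSO median and -100 = no signal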
Active calls of the source: *; i = inactive; nt = not tested or not shown.

SMILES	FGF22 binding	T cruzi inh	Ecoli growth	UCH37 inh	Beta cell apopt	MLL AF4-AF9 inh	A1 inh	Ecoli rRNA inh	Ecoli rRNA inh OD600	Ecoli rRNA inh RFP
Cc1onc(-c2ccccc2Cl)c1C(=O)N[C@@H](C)c1ccccc1	i	1	0.65	5.0	-7	-8.3	0.1	-21*	-14*	0.5*
COc1cccc(C(=O)OCC(=O)Nc2ccc(N3CCOCC3)cc2)c1	i	nt	0.68	0.2	-4	-3.7	-1.1	12	19	0.8
Cc1ccc(S(=O)(=O)N2CCC(C(=O)N[C@@H](C)C(=O)NC3CCS(=O)(=O)C3)CC2)cc1 (stereo not given in full)	i	-12	0.71	-0.4	0	-9.1	-0.5	8	4	3.1
CCCn1nnc(NC(=O)c2ccc([N+](=O)[O-])cc2Cl)n1	i	-13	0.68	5.1	-1	-11	0.5	20	15	1.3
CN(c1ccccc1)S(=O)(=O)c1cccc(C(=O)Nc2ncn[nH]2)c1	i	-4	0.74	-1.7	1	0.3	-0.1	9	11	3.4
O=C(CSc1nnc(-c2ccccc2)n1Cc1ccccc1)NNC(=O)c1ccccc1O	i	-7	0.57	-1.7	nt	-7.0	0.3	-38	-56	-12
Cc1ccc(NC(=O)COc2ncnc3ccccc23)cc1S(=O)(=O)N1CCOCC1	i	5	0.69	-0.8	-2	6.2	-0.2	-1	-1	-0.9
COc1ccc(S(=O)(=O)N2CCCCC2)cc1NC(=S)Nc1ccccc1	nt	2	0.64	3.0	2	nt	-0.2	nt	nt	nt
Cc1cc2nc(CCN(Cc3cccnc3)C(=S)Nc3ccccc3)[nH]c2cc1C	nt	46	0.69	-0.4	-2	nt	-0.4	nt	nt	nt
CCCOc1cccc(-c2nc3ccccc3c(=O)o2)c1	nt	-10	0.69	-2.2	5	nt	-2.5	nt	nt	nt
COc1ccc(N=C2C(=Nc3ccc(OC)cc3)N(c3ccc(OC)cc3)C(=S)N2c2ccccc2)cc1	i	25	0.73	6.8	9	11	-1.4	1	5	-6.9
COCCNC(=O)COC(=O)c1ccc(S(=O)(=O)N2CCOCC2)cc1	nt	-7	0.68	-1.3	-3	-2.4	0.9	17	10	0.6
Cc1ccc2oc(-c3cc(NC(=O)c4ncn[nH]4)ccc3O)nc2c1	nt	-36	nt	nt	-7	-3.2	0.0	8	8	6.2
CC(=O)c1cccc(N(C(=O)c2ccco2)C(C(=O)NC2CCCCC2)c2ccc(C)o2)c1 (stereo not given)	i	11	0.63	3.5	-4	5.2	-0.3	3	6	9.1
Cc1cc(C)nc(-n2ncc3c2CC(c2ccc(F)cc2)CC3=O)n1 (stereo not given)	i	-5	0.7	3.5	3	-1.0	-0.1	12	0	3.8

Two compounds from above, reduced to Ecoli rRNA inh OD600 and Ecoli growth:
| SMILES | Ecoli rRNA inh OD600 | Ecoli growth |
| --- | --- | --- |
| Cc1cc2nc(CCN(Cc3cccnc3)C(=S)Nc3ccccc3)[nH]c2cc1C | nt | 0.69 |
| CCCOc1cccc(-c2nc3ccccc3c(=O)o2)c1 | nt | 0.69 |

Remaining list, next part
SMILES	FGF22 binding	T cruzi inh	Ecoli growth	UCH37 inh	Beta cell apopt	MLL AF4-AF9 inh	A1 inh	Ecoli rRNA inh	Ecoli rRNA inh OD600	Ecoli rRNA inh RFP
CCOC(=O)c1[nH]c(C)c(/C(O)=C2\C(=O)C(=O)N(CCCN(CC)CC)C2c2cccnc2)c1C (stereo not given)	nt	-20	0.72	8.1	-5	nt	-0.1	nt	nt	nt
Cc1ccccc1OCCC(=O)Nc1ccccc1C(=O)NC1CC1	i	2	0.65	-4.4	-1	-2.3	-0.4	6	15	1.8
CCc1ccc(C(=O)COC(=O)c2cnc(C)cn2)cc1	i	-17	0.72	1.7	-6	-0.2	-0.2	2	1	-0.7
CSc1ncccc1C(=O)Nc1ccc(OC(F)(F)F)cc1	i	-5	0.66	1.1	1	0.7	-1.1	2	-4	-6.0
Cc1ccccc1OC1CCN(C(=O)C2CCC(=O)N(C3CCCC3)C2)CC1 (stereo not given)	i	3	0.69	1.6	nt	-2.2	nt	7	-22	-0.7
Cc1ccc(S(=O)(=O)N(Cc2ccc(F)cc2)C(=O)N2CCN(C)CC2)cc1	i	-7	0.64	3.2	nt	-13	0.9	11	12	4.9
Cc1ccc(C(=O)NC2=NCCS2)cc1	i	-1	0.65	2.5	-8	-8.7	-1.8	-4	-4	-3.4
CC1(C)CC(=O)C(C=NCCN2CCN(CCc3ccccc3)CC2)=C(O)C1	i	6	0.75	5.6	-1	-2.7	0.1	9	7	-3.2
COc1ccc(OC)c(S(=O)(=O)N2CCC(c3nc4ccccc4[nH]3)CC2)c1	i	-7	0.7	1.5	nt	-0.2	0.7	1	0	3.9
Clc1ccc(-c2nnc(CCc3ccccc3)o2)c(Cl)c1	i	-4	0.66	1.9	-4	-1.1	0.0	-30	-26	-7.0
Cn1c2c(c(=O)n(C)c1=O)C(c1cccc(F)c1)C(C#N)=C(N)O2 (stereo not given)	i	-4	0.69	1.2	-5	-2.0	0.0	0	-3	3.3
CCCCCN=C(N)N/N=C/c1c[nH]c2ccc(OC)cc12	i	36	nt	nt	56	35*	-0.1	nt	nt	nt
Cc1c(C)c2cc3c4c(oc3c(C)c2oc1=O)CCCC4	nt	6	0.71	-9.8	0	nt	-0.4	nt	nt	nt
COc1ccc(CCNC(=O)COC(=O)c2ccc(S(=O)(=O)N3CCCC3)cc2)cc1OC	i	nt	0.67	2.6	2	0.6	-0.1	3	11	-1.8
Cc1onc(-c2c(F)cccc2Cl)c1C(=O)OCC(=O)NCc1ccccc1	i	nt	0.64	0.3	-7	-2.2	0.2	-4	-8	-0.6
N#CC1=C(SCC(=O)c2ccccc2)NC2=C(C(=O)CCC2)C1c1ccco1 (stereo not given)	nt	6	0.69	6.5	19	nt	-0.5	nt	nt	nt
Cc1[nH]c(=O)c(C#N)c2c1CCCC2	nt	-2	0.72	-19	-3	nt	-0.1	nt	nt	nt
O=C(c1ccc(Cl)c(Cl)c1)N(Cc1ccco1)c1ccc(O)cc1	nt	7	0.7	-0.9	13	nt	0.3	nt	nt	nt
COc1cccc(C2=NN(C(=O)c3ccco3)C(c3ccco3)C2)c1 (stereo not given)	i	15	0.71	1.6	6	1.8	-0.9	-37	-48	-8.5
CC(=O)N1C(C(=O)O)Cc2c([nH]c3ccccc23)C1(C)C (stereo not given)	i	-1	0.6	1.4	3	-4.6	0.2	22	2	-0.5
Nc1nc2c(F)c(F)c(F)cc2s1	i	12	0.69	0.4	3	-1.4	2.5	8	-8	-1.9
CC1(C)CC(=O)C(C(C2=C(O)CC(C)(C)CC2=O)c2cccc(O)c2)C(=O)C1 (stereo not given)	nt	nt	0.75	3.2	-7	nt	0.8	nt	nt	nt
COC(=O)c1ccccc1NC(=O)c1ccc2c(c1)OCCO2	nt	-8	0.75	-3.3	-2	nt	0.1	nt	nt	nt
COc1ccc(CNS(=O)(=O)c2ccc3c(c2)N(C(C)=O)CCO3)cc1	i	1	0.7	4.1	-4	-2.8	0.6	4	2	1.3
CCN(CCC#N)c1ccc(N2C(=O)CCCC2=O)cc1[N+](=O)[O-]	i	-8	0.66	1.9	0	0.2	-0.7	17	11	0.5
Cc1c(NC(=O)C23CC4CC(CC(Br)(C4)C2)C3)c(=O)n(-c2ccccc2)n1C	i	-2	0.68	5.1	1	0.2	0.1	3	-4	-1.5
O=C(Nc1ccc(Cl)cc1)Nc1ccc(C(=O)N2CCOCC2)cc1	i	5	0.66	8.9	-1	-12	-0.5	1	1	-0.9
Cc1cc(C)nc(SCC(=O)N/N=C/C=C/c2ccccc2)n1	i	1	nt	nt	0	-0.1	-0.6	-11	-11	-2.1
C[N+](C)(C)CCCCCCCCCC[N+](C)(C)C	i	-8	0.72	0.7	-1	-1.8	-0.2	2	8	-0.8
COC(=O)c1[nH]c2cc(OC)ccc2c1NC(=O)c1nonc1C	nt	2	0.74	2.5	0	nt	0.6	nt	nt	nt

Part of the list above in a different format.
Each structure is followed by: FGF22 binding	T cruzi inh	Ecoli growth	UCH37 inh	Beta cell apopt	MLL AF4-AF9 inh	A1 inh	Ecoli rRNA inh	Ecoli rRNA inh OD600	Ecoli rRNA inh RFP
> Nc1nc2c(F)c(F)c(F)cc2s1
    i	12	0.69	0.4	3	-1.4	2.5	8	-8	-1.9
> CC1(C)CC(=O)C(C(C2=C(O)CC(C)(C)CC2=O)c2cccc(O)c2)C(=O)C1 (stereo not given)
    nt	nt	0.75	3.2	-7	nt	0.8	nt	nt	nt
> COC(=O)c1ccccc1NC(=O)c1ccc2c(c1)OCCO2
    nt	-8	0.75	-3.3	-2	nt	0.1	nt	nt	nt
> COc1ccc(CNS(=O)(=O)c2ccc3c(c2)N(C(C)=O)CCO3)cc1
    i	1	0.7	4.1	-4	-2.8	0.6	4	2	1.3
> CCN(CCC#N)c1ccc(N2C(=O)CCCC2=O)cc1[N+](=O)[O-]
    i	-8	0.66	1.9	0	0.2	-0.7	17	11	0.5

Continuation:
SMILES	FGF22 binding	T cruzi inh	Ecoli growth	UCH37 inh	Beta cell apopt	MLL AF4-AF9 inh	A1 inh	Ecoli rRNA inh	Ecoli rRNA inh OD600	Ecoli rRNA inh RFP
C=CCn1c(SCC(=O)NC(C)(C)C)nnc1-c1ccccc1O	nt	-8	0.73	3.9	0	nt	-1.6	nt	nt	nt
OCc1nc2ccccc2n1C/C=C/c1ccccc1	nt	-13	0.67	0.4	-6	nt	0.4	nt	nt	nt
COc1ccc(Cl)cc1NC(=O)Nc1cn(C)nc1C	i	2	nt	nt	5	-1.1	0.7	16	2	0.7
CCCN(C(=O)COC(=O)C12CCC(=O)N1c1ccccc1S2)c1c(N)n(Cc2ccccc2)c(=O)[nH]c1=O (stereo not given)	i	-4	0.66	5.2	3	-0.6	0.7	8	7	4.5
COc1ccc(-c2cc(C(=O)Nc3ccc(C(N)=O)cc3)c3ccccc3n2)cc1	i	14	0.68	-323	-9	-1.7	-0.7	3	13	3.0
NC(=O)CSc1ccc(F)cc1	i	1	0.68	3.6	-4	0.0	-0.1	34	21	3.5
CN1CCN(C(=O)/C=C/c2c(F)cccc2Cl)CC1	i	4	0.77	1.4	-2	-0.8	-1.7	2	4	-1.1
CC(=O)NCCC(=O)N1CCCC(C(=O)c2ccc3c4c(cccc24)CC3)C1 (stereo not given)	i	5	0.65	-147	-3	-1.5	0.2	2	1	7.3
CCCNC(=O)c1cn(CC)c2cc(N3CCN(C)CC3)c(F)cc2c1=O	nt	13	0.049*	-47	4	nt	0.6	nt	nt	nt
Cc1cc(C)n2nc(C(=O)OCC(=O)Nc3ccc(F)cc3F)nc2n1	i	5	0.71	6.1	3	-2.8	0.0	6	2	-0.3
Cc1cccc(/C(N)=N/OC(=O)N2CCOCC2)c1	nt	60*	0.66	1.0	6	nt	-4.0	nt	nt	nt
CC1CCCCC1NC(=O)CCCn1c(=S)[nH]c2ccccc2c1=O (stereo not given)	i	-5	0.69	3.5	5	-0.2	0.1	11	20	3.5
COc1cc(-c2cc(C(=O)NN3CCN(C)CC3)c3ccccc3n2)cc(OC)c1OC	i	-5	nt	nt	5	-51	0.0	0	-10	-5.3
CCCOc1ccc(C(=O)N2CCN(c3ccc(N)cc3Cl)CC2)cc1	nt	4	0.67	6.0	4	nt	0.5	nt	nt	nt
CC(=O)c1cccc(N2C(=NC(=O)CCc3ccccc3)SC3CS(=O)(=O)CC32)c1 (stereo not given)	i	5	0.68	-0.5	-3	-1.0	-0.5	10	-3	0.2

Screening data deposited in PubChem by several laboratories.

This is a subset; count on the stated rates, not on these rows.
